Source: PubChem (Fisher Drug Discovery Resource Center)
NPYLR7 ag = activates Aedes aegypti NPYLR7 receptor. HEK293T NPYLR7/Galpha15, GCaMP6s calcium fluorescence. activation, % at 10 µM. actives 0.15% (n = 270,000). AID 1259423; in the data active = activation above about 40%;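 also: 0% = vehicle and 100% = reference agonist at the receptor; some compounds past the cut are filed as inactive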
NPYLR7 ag max-min = recorded beside NPYLR7 ag, whose call it bears; activation, %; measured here: Max-Min RFU normalised activation; some inactives read as strong as hits;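 span of the calcium signal over five minutes; 0% = vehicle and 100% = native peptide agonist; compound fluorescence can raise it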
* marks the source's active call; other numbers are inactive results; & = joins results of further samples.

molecule | NPYLR7 ag | NPYLR7 ag max-min
COc1ccc(OC)c(S(=O)(=O)N2CCN(c3ccc(C)c(Cl)c3)CC2)c1 | -13 | -14
O=C(O)Cc1csc(NC(=O)CN(C(=O)c2ccc(Cl)c(Cl)c2)C2CC2)n1 | -11 | -18
CC(=O)Nc1nc(NC(C)=O)n(-c2ccccc2)n1 | 8 | 6
CCOC(=O)CCC(=O)Nc1nnc(SCc2cc(F)ccc2F)s1 | -3 | 7
CCc1nc(NC(=O)CN(C)CCC2CCCCN2C)sc1C (stereo unspecified) | 1 | 0
O=C(O)c1cc(-c2ccc3[nH]ccc3c2)cc(S(=O)(=O)N2CCOCC2)c1 | -8 | -8
CC(C)C(N)=NOC(=O)c1ccc(I)cc1 | 10 | 14
N#Cc1ccccc1NC(=O)COC(=O)CCOc1ccccc1 | -1 | -6
CCOC(=O)CCCCCC(=O)Nc1ccc(-c2onc3c2CCc2cc(OC)ccc2-3)cc1 | 8 | 2
Cc1ncsc1C(=O)Nc1scc(C2CCCCC2)c1C(N)=O | 0 | 11
CN1CCC(Cc2noc(COCc3ccccc3)n2)CC1 | 12 | 6
O=C(CNC(=O)c1ccc(Br)o1)NCCSc1ccc(Cl)cc1 | -5 | -6
c1cnc(NC2CCN(Cc3cc4n(n3)CCNC4)CC2)nc1 | 7 | 7
Cc1c(C)n2c3c(=O)n(Cc4ccc(Cl)cc4)c(=O)n(C)c3nc2n1C(C)C | 2 | 2
Cc1ccc(-c2nc(C(=O)NC(C)CC(N)=O)cs2)c(C)c1 (stereo unspecified) | -10 | -12
Cc1cccc(NC(=O)C2CC(=O)N(Cc3ccccc3)C(=Nc3ccc(Cl)cc3)S2)c1 (stereo unspecified) | -12 | -17
CC(=O)N1N=C(c2cccs2)OC1C(=O)NN(C)c1ccccc1 (stereo unspecified) | 17 | 14
CCN(Cc1cccs1)S(=O)(=O)N1CCS(=O)(=O)CC1 | 7 | 6
C1=C[C@H]2C[C@@H]1C[C@H]2CCn1ccnc1-c1cnc[nH]1 | 21 | 6
COc1ccc(-c2cn3c4ccccc4n(C)c3n2)cc1 | -10 | -20
O=C(Cn1nc(C2CC2)c2cnn(-c3ccc(F)cc3)c2c1=O)N1CCc2ccccc21 | 9 | 5
CCn1nc(C)c(Cn2ccnc2-c2cnc(N3CCOCC3)nc2)c1C | 4 | 0
Cc1ccc2nc(N3CCC(C)CC3)c(C=C3SC(=S)N(Cc4ccco4)C3=O)c(=O)n2c1 | 6 | 7
Cc1occc1C(=O)N1CCN(S(=O)(=O)c2cccc(Cl)c2Cl)CC1 | 4 | 1
COC(=O)c1c(C)[nH]c(C(=O)C(C)OC(=O)c2c(NC(C)=O)sc(C)c2C)c1C (stereo unspecified) | -3 | 6
O=C(c1cc([N+](=O)[O-])ccc1Cl)N1CCc2ccccc21 | 6 | 0
Cc1cc(C)c(-c2csc(NC(=O)Cn3cnc4sccc4c3=O)n2)cc1C | 13 | 13
O=C(CSc1nnc(Cc2ccccc2)n1-c1ccccc1)NC1CC1 | 12 | 13
COc1ccc(CN(CC2CCCO2)C(=O)c2ccccc2Cl)cc1OS(=O)(=O)c1ccc(F)cc1 (stereo unspecified) | -3 | 3
N#Cc1sc2nc3c(cc2c1N)CCCC3 | 5 | 5
O=C(O)c1ccc(Br)c(N2C(=O)C3CC=CCC3C2=O)c1 (stereo unspecified) | -10 | -14
COc1cccc(COC2CN(Cc3ccccn3)C(=O)CN(C(=O)c3ccc4c(c3)OCO4)C2)c1 (stereo unspecified) | 14 | 8
COc1ccc(F)c(-c2cncc(C(=O)N3CCOCC3)n2)c1 | 2 | -3
CC(=O)Oc1ccc(CN2C(=O)C(C)ON=C2c2ccncc2)cc1 (stereo unspecified) | 8 | 6
CC(c1ccncn1)N(C)Cc1ccc(-c2ccc(Cl)cc2F)o1 (stereo unspecified) | 6 | 4
O=C(Nc1ccccc1OC(F)(F)F)c1ccc(Br)o1 | 6 | 3
CCOC(=O)c1nn(-c2ccc(F)cc2)c(=O)cc1N1CCN(c2cccc(C(F)(F)F)c2)CC1 | 8 | 2
COCc1ccc(CN2CCCC(CCC(=O)N3CCOCC3)C2)o1 (stereo unspecified) | -1 | 0
CCc1nc(SCC(=O)OC)n(C)c(=O)c1Cc1cccc(C)c1 | 7 | 7
C#C[C@]1(O)CCC2C3CCc4cc(OC5CCCC5)ccc4C3CC[C@@]21C (stereo partly specified) | -4 | 2
COc1ccc(C(=O)Nc2n[nH]c(-c3ccccc3Cl)n2)cn1 | 12 | 19
CC(Oc1ccccc1-c1ccccc1Cl)C(N)=O (stereo unspecified) | -2 | 2
Cc1ccc(OC2(C(=O)NC(C)Cc3ccncc3)CCNCC2)cc1 (stereo unspecified) | -2 | -4
C=CC[C@@H]1CC=C[C@@H](C)N1C(=O)c1ccc(CSc2ncccn2)o1 | 4 | 3
COc1cccc(NC(=O)Nc2cccc(-n3nc(OC(C)C)nc3-c3ccccc3F)c2)c1 | -1 | 2
COc1ccccc1C(=O)N1CCN(Cc2cnc(N(C)C)nc2)CC1 | -2 | -2
CC(C)c1ccccc1N=C1SCCCN1C(=O)c1nn(C)c(=O)c2ccccc12 | 0 | 0
Cc1nc(C)c(Cc2ccccc2F)c(N2CCN(C(=O)C34CC5CC(CC(C5)C3)C4)CC2)n1 | 21 | 27
C=C(C)CNC(=S)NN=Cc1ccsc1 | -8 | -15
Nc1ccc([N+](=O)[O-])cc1NS(=O)(=O)c1ccc(Cl)cc1 | -4 | -10
O=C(NCCNc1ccc([N+](=O)[O-])cn1)c1ccc(Nc2cccc(C(F)(F)F)c2)nc1 | -9 | -9
C=CCSc1nnc(-c2ccncc2)n1-c1ccccc1 | 4 | 1
CC(NC(=O)c1coc2c1C(=O)CCC2)c1cn2ccsc2n1 (stereo unspecified) | 1 | 0
O=C(c1ccc(Br)o1)N1CCN(c2cc(-n3cccn3)ncn2)CC1 | -5 | -12
Cc1cc(C(=O)OCCN(C2=NS(=O)(=O)c3ccccc32)c2ccccc2Cl)ccc1[N+](=O)[O-] | -18 | -12
COc1cc(C=NN(C)C)cc(Br)c1O | 6 | 5
Cc1cc(Cl)ccc1N1CCN(C(=O)c2ccc(C(F)(F)F)cc2)C(C)C1=O (stereo unspecified) | 0 | -4
COc1cc(/C=C2N=C(/C=C/c3ccc(Cl)cc3Cl)OC\2=O)cc(OC)c1OC | 7 | -6
C#CCN(Cc1ccc(C)cc1)S(=O)(=O)N(C)C(C)C1CC1 (stereo unspecified) | -2 | -4
CO[C@@H]1CC[C@H]2C[C@@H]1[C@@H](Oc1ccccn1)CN2C(=O)CO | 22 | 29

Reprinted at random: 6 compounds from above, in no set order.
molecule | NPYLR7 ag | NPYLR7 ag max-min
Cc1nc(C)c(Cc2ccccc2F)c(N2CCN(C(=O)C34CC5CC(CC(C5)C3)C4)CC2)n1 | 21 | 27
COc1cccc(NC(=O)Nc2cccc(-n3nc(OC(C)C)nc3-c3ccccc3F)c2)c1 | -1 | 2
O=C(Nc1ccccc1OC(F)(F)F)c1ccc(Br)o1 | 6 | 3
COc1ccc(C(=O)Nc2n[nH]c(-c3ccccc3Cl)n2)cn1 | 12 | 19
O=C(NCCNc1ccc([N+](=O)[O-])cn1)c1ccc(Nc2cccc(C(F)(F)F)c2)nc1 | -9 | -9
C=CC[C@@H]1CC=C[C@@H](C)N1C(=O)c1ccc(CSc2ncccn2)o1 | 4 | 3

One compound at a time, from the list above. Order of values: NPYLR7 ag, NPYLR7 ag max-min
Shown for COc1ccc(F)c(-c2cncc(C(=O)N3CCOCC3)n2)c1 : 2, -3
Shown for COc1cccc(NC(=O)Nc2cccc(-n3nc(OC(C)C)nc3-c3ccccc3F)c2)c1 : -1, 2

Copied from the list:
For NPYLR7 ag max-min, O=C(O)c1ccc(Br)c(N2C(=O)C3CC=CCC3C2=O)c1 (stereo unspecified) reads -14
For NPYLR7 ag max-min, CC(NC(=O)c1coc2c1C(=O)CCC2)c1cn2ccsc2n1 (stereo unspecified) reads 0
For NPYLR7 ag, CCOC(=O)c1nn(-c2ccc(F)cc2)c(=O)cc1N1CCN(c2cccc(C(F)(F)F)c2)CC1 reads 8
For NPYLR7 ag, C#C[C@]1(O)CCC2C3CCc4cc(OC5CCCC5)ccc4C3CC[C@@]21C (stereo partly specified) reads -4

Following part.
molecule | NPYLR7 ag | NPYLR7 ag max-min
Cn1cc(S(=O)(=O)N2CCOCC2)cc1C(=O)Nc1nccs1 | 22 | 17
O=C(NN=Cc1c(O)ccc2ccccc12)c1ccccn1 | -5 | -9
CC1CCc2c(C(=O)N3CCC(C(=O)O)CC3)csc2C1 (stereo unspecified) | -1 | -2
COc1ccc(-c2noc(COc3ccc(OC)cc3[N+](=O)[O-])n2)cc1 | -6 | -7
CNc1cc(S(=O)(=O)O)c(N)c2c1C(=O)c1ccccc1C2=O | 9 | -2
COc1nc(C)cc(C)c1CNC(C)C(=O)Nc1ccc(C)cc1 (stereo unspecified) | 5 | -9
Cn1nnnc1SCC(=O)N1CCN(S(=O)(=O)c2ccccc2C#N)CC1 | 11 | 14
Cc1ccc(OCCOCCOc2cccc(/C=N\n3cnnc3)c2)cc1 | 1 | 0
O=C(c1ccc2c(c1)CCO2)N1CCOC(Cc2ccccc2)C1 (stereo unspecified) | 28 | 39
CN(CC1Cc2ccccc2O1)c1nc(C2CCCC2)nc2c1CNC2 (stereo unspecified) | 4 | 3
CN(C)c1ncc(CN2CCC(CCC(=O)Nc3ccc4c(c3)OCCO4)CC2)s1 | 9 | 3
C#CCNS(=O)(=O)c1cccc(C(=O)NC2COc3ccccc3C2)c1 (stereo unspecified) | 0 | 3
Cc1ccc(-n2cc(CN3CCC(CO)(Cc4ccccc4)CC3)cn2)cc1 | -8 | -12
O=C(Cn1nnnc1CN1CCCC1)NCC1(c2ccccc2)CCOCC1 | 15&11 | 6&5
Cc1cccc(Oc2cc(Cl)ncn2)c1 | 9 | 7
COc1ccccc1OCCn1c(C2CC(=O)N(Cc3ccc(F)cc3)C2)nc2ccccc21 (stereo unspecified) | 2 | 3
CCc1ccnc(NC(=O)c2cccc(CN3CC[C@H](O)C3)c2)c1 | 5 | -7
CCCc1nc(N2CCN(C(=O)Nc3cccc(C)c3)CC2)c2c(-c3ccccc3)noc2n1 | 15 | 6
Cc1c(C(=O)Oc2cc(N)n(S(C)(=O)=O)n2)cccc1[N+](=O)[O-] | 2 | 2
OCCC1CN(Cc2ccsc2)CCN1Cc1cccs1 (stereo unspecified) | 0 | -3
CC(C)CN1CC(O)CN(S(=O)(=O)c2ccc(F)cc2)CC1=O (stereo unspecified) | 0 | 2
COCCCNc1nc2ccccc2nc1NS(=O)(=O)c1ccc(C)c(C)c1 | -17 | -20
COc1cccc(C(=O)NCC2Cc3cc(-c4ccc(S(C)(=O)=O)cc4)ccc3O2)c1OC (stereo unspecified) | 3 | -2
CCOC(=O)C1CCN(CC(=O)N2N=C(c3cccc(C)c3)CC2c2ccccc2F)CC1 (stereo unspecified) | -2 | 2
CC1Oc2ccc([N+](=O)[O-])cc2N(c2ccc3c(c2)CCO3)C1=O (stereo unspecified) | 4 | 2
CCS(=O)(=O)NCCN1CCOC(c2nc(C(C)C)n[nH]2)C1 (stereo unspecified) | 8 | 7
CCn1ccnc1CN(C)C(=O)CCNC(=O)c1ccccc1F | 14 | 1
CC1CCN(C(=O)Cn2cnc3c(nnn3Cc3ccccc3)c2=O)CC1 | 7 | 6
CCCCOC(=O)C1=C(C)NC(=O)NC1c1cc(OC)cc(Br)c1OC (stereo unspecified) | 0 | -3
C[C@@](Cc1ccc(O)c(O)c1)(NN)C(=O)O | -2 | -13

The results go on:
Fields – NPYLR7 ag	NPYLR7 ag max-min
- CC(=O)N1CC[C@@]2(C1)[C@@H](Oc1ccccn1)CN(C)S2(=O)=O
    0	1
- CC(C)(NC(=O)c1cccs1)C(=O)NCC1(c2cccc(F)c2)CCOCC1
    0	-3
- O=C1CN(CC2(O)CCCN(CCc3ccccc3)C2=O)CCCN1 (stereo unspecified)
    14	12
- COc1ccc(Cn2ccnc2CN(C(=O)c2cccc(OC)c2)c2ccccc2)cc1
    21	29
- O=C(CCn1cc(Cl)cn1)NC1CCC(n2cnnc2)CC1 (stereo unspecified)
    0	-1
- CC(=O)N(Cc1cc(Cl)ccc1OS(C)(=O)=O)CC(C)C
    21	26
- CN(C)CCNC(=O)[C@@]1(OCc2cccc(F)c2)CC(OCc2ccccc2F)[C@@H]2OC(C)(C)O[C@@H]2C1 (stereo partly specified)
    21	9
- O=C1SCN(Cc2ccccc2)CN1Cc1ccccc1
    -1	-2
- NC(=O)c1nc(-c2cc(Br)ccc2O)nc2c1[nH]c(=O)n2-c1ccc2c(c1)OCO2
    14	9
- Cc1cc(S(=O)(=O)NC2CCOC2=O)c(C)cc1Cl (stereo unspecified)
    -4	-8
- CN(C)CCN(Cc1cc(NC(=O)C2CCC2)ccc1N(C)C)C(=O)c1ccco1
    -4	-4
- Cc1ccc(-c2cc(C(=O)Nc3ncc(C)s3)on2)cc1
    2	1
- CN1c2ccccc2Oc2nnc(N3CCN(c4ccccc4)CC3)cc21
    13	5
- CCOc1cc(C=C2N=C(c3ccc(Cl)cc3)OC2=O)ccc1OC(C)C(=O)N(C)C (stereo unspecified)
    10	10
- O=C(Nc1ccncc1)C1(c2ccc3c(c2)OCO3)CCCCC1
    4	1
- CCc1cc(C)cc(OCC(O)Cn2c(C)[n+](C)c3ccccc32)c1 (stereo unspecified)
    5	2
- CCOC(=O)c1[nH]c2c(c1-c1ccc(OC)cc1)C(=O)CC(c1ccc(OC)c(OC)c1)C2 (stereo unspecified)
    -1	-4
- O=C(Nc1cccc(Cl)c1)N1CCCC(OCc2ccccc2Cl)C1 (stereo unspecified)
    -5	-3
- CS(=O)(=O)c1ccc(-c2nc3c(cc2C(N)=O)CCC3)cc1
    -2	-9
- Cc1cccnc1CC(C)NC(=O)c1cn[nH]c1-c1ccccc1 (stereo unspecified)
    6	4
- O=C(COc1ccc(N2CCCC2=O)cc1)Nc1ccc(N2CCOCC2)nc1
    13	4

This is a subset; the hit share may differ from the screen's.
